Source: PubChem BioAssay
HNF4A DNA FP = change in binding of human HNF4A to DNA, primary screen, biochemical, fluorescence polarization, FITC-DNA; Hepatocyte nuclear factor 4-alpha (Homo sapiens), P41235; 1 h; activity change, % at 10 µM; hit rate 0.3% among 360,000; AID 1224865, 2016; in the data active means activity change above about 30%, passing the limit was not always enough;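 further: controls were the assay level and a saturating level of protein; the project sought stronger binding though the title names inhibitors; some compounds called inactive have numbers as strong as hits; positive values seem to mean higher polarization but the record does not say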
RanGTP-Imp inh = inhibitors of RanGTP-importin-beta interaction, primary screen, biochemical, FRET, CFP-Ran, YFP-importin-beta, homogeneous | inhibition, % (concentration not given with the values) | cell-free CFP-Ran/YFP-importin-beta FRET ratio | hit rate 1.1% among 300,000 | Ran GTPase (GTP-bound) - importin-beta complex;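 active means most replicates above 15%; inconclusive means exactly half above 15%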;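 further: 0% = DMSO wells and 100% = Ran loaded with GDP instead of GTP; wells of about 40 µL received 100 nL stock; the first replicate is given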
AF4-AF9 inh = inhibitors of AF4 peptide binding to AF9, primary screen, biochemical, AlphaScreen, biotin-AF4 peptide, FLAG-AF9, single point | hit rate 0.47% among 350,000 | Protein AF-9 (Homo sapiens), P42568 | inhibition, % at 10 µM;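 active means every replicate reaching a set inhibition limit, whatever the replicate mean, cut at about 25% in these data; inconclusive means mean inhibition reaches that limit but some replicates miss it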;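 further: 0% = plate neutral control median and 100% = total signal loss; the record names both 10 and 1 µM as test concentration; the first replicate is given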
Target sequence (P42568 whole entry, looked up): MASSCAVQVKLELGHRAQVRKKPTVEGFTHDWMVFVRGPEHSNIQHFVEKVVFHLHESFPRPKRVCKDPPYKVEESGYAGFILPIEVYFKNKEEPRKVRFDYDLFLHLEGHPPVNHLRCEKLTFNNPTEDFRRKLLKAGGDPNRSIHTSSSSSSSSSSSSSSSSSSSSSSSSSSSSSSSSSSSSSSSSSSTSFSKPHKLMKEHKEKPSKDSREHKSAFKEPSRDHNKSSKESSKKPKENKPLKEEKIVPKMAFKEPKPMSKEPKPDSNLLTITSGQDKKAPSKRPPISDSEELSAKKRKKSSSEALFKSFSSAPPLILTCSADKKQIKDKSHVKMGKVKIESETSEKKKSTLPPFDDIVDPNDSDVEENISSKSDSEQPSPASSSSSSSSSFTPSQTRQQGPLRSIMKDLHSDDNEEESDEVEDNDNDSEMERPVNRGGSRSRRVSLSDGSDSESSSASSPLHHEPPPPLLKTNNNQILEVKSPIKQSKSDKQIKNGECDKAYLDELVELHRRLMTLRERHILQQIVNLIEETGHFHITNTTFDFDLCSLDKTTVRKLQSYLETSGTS
UCH37 inh = inhibitors of human UCH37 deubiquitinase, primary screen, biochemical, Ub-AMC cleavage, fluorescence; inhibition, % (no concentration beside the values); purified proteasome/UCH37; AID 588478, 2011; hit rate 0.33% among 330,000;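 active means mean of two replicates above 20%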;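 further: 0% = compound-free wells with enzyme and 100% = wells lacking proteasome; stock transfer was 100 nL into about 20 µL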
Target sequence (Q9Y5K5 whole entry, looked up): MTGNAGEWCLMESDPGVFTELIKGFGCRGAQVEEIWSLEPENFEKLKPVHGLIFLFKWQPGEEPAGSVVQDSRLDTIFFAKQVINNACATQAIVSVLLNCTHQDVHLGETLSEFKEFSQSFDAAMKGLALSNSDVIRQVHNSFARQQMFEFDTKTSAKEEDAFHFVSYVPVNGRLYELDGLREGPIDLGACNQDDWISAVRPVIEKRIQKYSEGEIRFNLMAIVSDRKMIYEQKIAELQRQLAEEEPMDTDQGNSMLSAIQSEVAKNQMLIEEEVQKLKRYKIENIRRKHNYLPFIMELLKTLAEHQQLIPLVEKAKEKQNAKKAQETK
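Material: human UCH37 enzyme supplied as purified proteasome complex / Amount: 0.15 nM proteasome as dispensed / Buffer or medium: pH 7.4 Tris-HCl (50 mM) with ovalbumin, ATP-MgCl2, DTT / Times: preincubation 30 min, reaction 25 min, room temperature / Technique: AMC fluorescence from Ub-AMC cleavage, excitation 355 nm, emission 460 nm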
Ecoli growth = E. coli growth inhibition, primary screen, OD600; OD600 absorbance (test concentration not listed); AID 1053175, 2014; hit rate 0.21% among 330,000; Escherichia coli growth, 23 h; hits give low values;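 active means OD600 absorbance below the run mean of sample wells minus 3.6 SD, in any replicate, cut at about 0.56 in these data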;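 further: stock transfer was 300 nL into about 60 µL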
FGF22 binding = binders of human FGF22 protein, primary screen, FGF22 synaptogenesis inhibitor project, biophysical, thermal shift, single point. Fibroblast growth factor 22 (Homo sapiens), Q9HCT0. recombinant FGF22 thermal shift, SYPRO orange fluorescence; percent of sucrose octasulfate shift, DMSO zero. calls only at 9.99 µM. hit rate 1.5% among 340,000;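 active means melting point raised past a set limit in the mean and every replicate; inconclusive means no clear call; three in four hits are not shown here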
Target sequence (Q9HCT0 whole entry, looked up): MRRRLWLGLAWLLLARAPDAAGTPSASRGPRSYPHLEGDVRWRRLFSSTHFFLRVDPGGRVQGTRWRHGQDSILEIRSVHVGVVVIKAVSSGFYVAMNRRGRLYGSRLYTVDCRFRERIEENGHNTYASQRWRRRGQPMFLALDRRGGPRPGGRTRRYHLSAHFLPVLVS
Vif TR-FRET = inhibitors of Vif binding to APOBEC3G peptide, primary screen, biochemical, TR-FRET, GST-Vif 1-94, biotin-A3G peptide, dose response retest (AID 1117319) | hit rate 0.57% among 260,000 | one-dose inhibition, %; IC50 in µM for titrated hits | Virion infectivity factor (Human immunodeficiency virus type 1 group M subtype B (isolate … | TR-FRET GST-Vif / biotin-A3G peptide binding; higher % means a stronger effect; test concentration not given here; strong numbers were not always called active;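 active means above the screen mean plus three standard deviations and confirmed in dose response; inconclusive means results disagree or hit not tested in dose response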;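 further: Vif residues 1-94 fused to GST binding biotinylated APOBEC3G peptide 110-148; 0% = full assay without inhibitor and 100% = GST in place of GST-Vif; retest series ran down from 100 µM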
Starred values were filed as active, the others as inactive; i = inactive; ? = inconclusive; nt = not tested or not shown; + = active, no number; & = joins results of further samples; ! = repeats disagree.

SMILES	HNF4A DNA FP	RanGTP-Imp inh	AF4-AF9 inh	UCH37 inh	Ecoli growth	FGF22 binding	Vif TR-FRET
O=C(NC1CCS(=O)(=O)C1)c1ccc(Br)s1 (centres undefined)	7.7	nt	-71.6	0.6	0.694	i	0.4%
CC(C)Oc1ccc(OCCCN2CCCCCC2)cc1	-1.5	-0.7	nt	0.4	0.722	nt	2.1%
Cc1cc2c(c(C)c1CCO[C@@H]1O[C@H](CO)[C@@H](O)[C@H](O)[C@H]1O)C(=O)[C@@H](C)[C@@H]2O	-2.2	nt	2.8	1.1	nt	i	nt
CCN(CC)c1ccc(N=Cc2ccccc2[N+](=O)[O-])cc1	-3.9	-0.5	20.9	0.4	0.694	i	-2.3%
Cc1csc(NC(=O)C2CCN(C(=O)CSc3nnc(C)n3Cc3ccccc3)CC2)n1	1.1	3.4	nt	-7.5	0.712	nt	?
NC(=O)c1ccc(NC(=O)CSC(=O)c2ccccc2)cc1	5.1	nt	-1.0	16.2	0.682	i	nt
CSc1cccc(NC(=O)C2CCN(C(=O)c3ccccc3C)CC2)c1	1.3	2.3	-1.7	3.5	0.642	i	-0.8%
CC(NS(C)(=O)=O)C(c1cccs1)N1CCN(Cc2ccccc2)CC1 (centres undefined)	3.1	-1.8	-17.6	-0.1	0.718	i	1.1%
CCOc1ccc2nc(SCC(=O)Nc3ccc4c(c3)OCCO4)[nH]c2c1	-1.3	-0.1	nt	1.4	0.695	nt	-0.6%
CCn1c(C)nc2cc(C(=O)NNS(=O)(=O)c3ccc(C)c(C)c3)ccc21	0.7	-1.3	nt	4.2	0.668	nt	24.1%
CC(C)=CCC[C@H](C)CC1Cc2[nH]c(=S)[nH]c(=O)c2C(c2ccc(Cl)cc2)O1 (some centres undefined)	-3.8	nt	-1.2	nt	nt	i	nt
O=C(c1ccc(NS(=O)(=O)c2cccs2)cc1)N1CCOCC1	2.2	1.2	-3.1	3.3	0.688	i	3.0%
COc1ccc(-c2nn(C)c(=O)c3ccccc23)cc1CNS(C)(=O)=O	-0.4	-2.3	nt	-1.7	0.682	nt	3.7%&2.3%
Cc1ccc2nc(NC(=O)C3CCN(C(=O)c4ccc(F)cc4)CC3)sc2c1	-1.1	-1.1	-2.4	2.8	0.688	i	nt
COc1ccc(-c2ccc(C#N)c(SCC(=O)NCCc3ccccc3)n2)cc1OC	9.5	nt	nt	-416.5	0.682	nt	?
CCc1ccc(C(O)(CC)C(CN2CCOCC2)c2ccccc2)cc1 (centres undefined)	4.8	1.9	1.7	1.4	0.66	i	-4.4%
Cc1noc(C)c1C(=O)N1CCN(c2ccc(OCc3ccccc3)cc2)CC1	2.4	-8.7	7.7	-0.5	0.629	i	?
CC(C)(C)c1ccc(C(=O)NCCC(=O)Nc2cc(Cl)ccc2N2CCOCC2)cc1	-1.0	nt	2.3	0.5	0.7	i	17.2%
CCOC(=O)C1=C(C)N(CCCC(=O)O)C(=O)NC1c1ccc(Cl)cc1Cl (centres undefined)	6.6	-3.3	-3.9	2.2	0.674	i	nt
Cc1ccc(S(=O)(=O)N2C[C@H]3[C@H]4C(=O)N(c5ccccc5)C(=O)[C@H]4CC(=O)[C@H]3[C@@H]2c2ccccc2F)cc1	-3.7	nt	-1.9	nt	nt	i	nt

Next part; it opens with the three that closed the last part.
SMILES	HNF4A DNA FP	RanGTP-Imp inh	AF4-AF9 inh	UCH37 inh	Ecoli growth	FGF22 binding	Vif TR-FRET
CC(C)(C)c1ccc(C(=O)NCCC(=O)Nc2cc(Cl)ccc2N2CCOCC2)cc1	-1.0	nt	2.3	0.5	0.7	i	17.2%
CCOC(=O)C1=C(C)N(CCCC(=O)O)C(=O)NC1c1ccc(Cl)cc1Cl (centres undefined)	6.6	-3.3	-3.9	2.2	0.674	i	nt
Cc1ccc(S(=O)(=O)N2C[C@H]3[C@H]4C(=O)N(c5ccccc5)C(=O)[C@H]4CC(=O)[C@H]3[C@@H]2c2ccccc2F)cc1	-3.7	nt	-1.9	nt	nt	i	nt
Nc1cccc(NC(=O)CCC(=O)NCc2ccco2)c1	-0.2	2.5	-2.9	0.8	0.646	i	-6.1%
CC1(C)CN(Cc2ccccc2)C(=O)[C@H]1CC(=O)Nc1ccc(Br)cc1	4.9	nt	-3.3	nt	nt	i	nt
O=C(CSc1nnc(CNc2ccc(F)cc2)n1Cc1ccccc1)NCc1ccccc1	3.4	-1.8	nt	0.6	0.755	nt	10.0%
CC(C)(C)OC(=O)C[C@H]1C/C=C\C[C@H](CC(=O)N(CCO)Cc2ccccc2)C(=O)N[C@H](C(C)(C)C)COC1=O	2.9	nt	1.7	0.3	nt	i	nt
O=C(c1ccco1)N1CCN(C(=O)C2CC2)CC1	-1.1	4.8	-3.0	2.1	0.724	i	-3.0%
CN1C(=O)Cc2cc(S(=O)(=O)N3CCOCC3)ccc21	-2.4	39.4*	nt	0.8	0.712	nt	0.9%
CC(=O)Oc1ccccc1C1OCCN1C(C)=O (centres undefined)	0.5	2.8	nt	1.3	0.688	nt	6.3%
CCOc1ccccc1NC(=O)NNS(=O)(=O)c1cc(C)ccc1C	1.0	2.4	-1.5	2.2	0.688	i	nt
COc1ccc(-c2cc(=O)oc3c(C)c(OCc4nn[nH]n4)ccc23)cc1	0.5	-3.0	nt	-5.1	0.7	nt	11.5%
N#CC1(NC(=O)COc2ccc3ccc(=O)oc3c2)CCCCC1	0.4	-1.1	10.9	-13.6	0.699	i	-7.8%
CC(C)Oc1cccc(C(=O)NC(=S)Nc2cccc(C(F)(F)F)c2)c1	-0.2	-0.8	nt	3.0	0.758	nt	-1.0%
CCCO/N=C1/C(=O)N(c2ccccc2)c2ccccc21	-4.3	-3.1	16.2	nt	nt	nt	10.2%
Cc1cc(=O)cc(C)n1-c1ccccc1N	-0.8	-1.6	1.7	4.1	0.658	i	nt
O=C(NNS(=O)(=O)c1ccc2ccccc2c1)C1CCN(Cc2ccccc2)CC1	1.2	1.5	nt	-0.9	0.689	nt	-6.1%
O=C(CCN1C(=O)/C(=C\c2ccccc2)SC1=S)NNC(=O)c1cccnc1	3.1	-2.1	-1.4	nt	nt	i	17.5%
Cc1ccsc1C(=O)N(C)CC(=O)Nc1ccccc1Br	-1.9	nt	3.1	-0.5	0.667	i	1.5%
CCOC(=O)N1CCC(NC(=O)c2ccc3c(c2)sc2nc(-c4ccccc4)cn23)CC1	-3.7	nt	nt	-4.4	0.784	nt	-36.4%
COc1cccc(CN(C(=O)c2ccc([N+](=O)[O-])cc2)C2CCS(=O)(=O)C2)c1 (centres undefined)	-1.3	-2.9	0.4	4.9	0.685	i	-2.8%
CCc1nnc(NC(=O)c2ccc(-c3ccccc3F)o2)s1	-2.2	-1.5	-0.5	-16.3	0.727	i	8.6%
O=C(NCc1ccccc1)C1CCN(C(=O)Cc2ccccc2)CC1	-2.7	3.1	-4.2	nt	nt	i	5.2%
C[C@@H]1C(c2ccccc2)=NN(c2ccccc2)[C@H]1C(=O)N1CCOC1=O	2.2	nt	-2.2	-30.9	0.712	i	-2.5%
O=c1[nH]c(/C=C2\C=Nc3ccccc32)c(O)n1Cc1ccccc1F	1.8	-1.4	2.7	1.1	0.722	i	nt
CC(=O)Nc1nc(C(F)(F)F)cs1	0.3	-3.1	-2.9	-2.5	0.708	i	3.9%
O=C(c1ccc(Cl)s1)N1CCN(S(=O)(=O)c2ccc(Cl)cc2)CC1	-0.2	nt	0.8	-1.2	0.603	i	-24.9%
C/C(=N\NC(=O)C1(C)CC1(Br)Br)c1ccc(NC(=O)c2ccc(C)o2)cc1 (centres undefined)	0.9	-4.2	nt	nt	nt	nt	2.8%
CCOc1cc(NC(=S)NCCCN(C)C)c(OCC)cc1NC(=O)C1CC1	3.1	8.1	3.0	-1.2	0.618	i	3.2%
COc1ccc(C2C3=C(CC(C)(C)CC3=O)Oc3ncn4nc(-c5cccnc5)nc4c32)cc1 (centres undefined)	0.9	-0.7	4.1	2.7	0.699	i	nt
Cc1ccccc1OCCN1C(=O)NC2(CCc3ccccc32)C1=O (centres undefined)	1.7	0.0	nt	2.0	0.714	nt	-2.7%
CN1/C(=C\C=Nc2cc(S(=O)(=O)N3CCOCC3)ccc2N2CCOCC2)C(C)(C)c2ccccc21	1.2	-3.6	6.5	10.1	0.663	i	nt
C[n+]1ccccc1/C=C/c1ccc(F)c(F)c1	-1.4	-4.1	-20.4	9.4	0.726	i	nt
C[C@@H]1CN([C@H](C)CO)C(=O)CCCn2nncc2CO[C@H]1CN(C)S(=O)(=O)c1ccc(F)cc1	-9.0	nt	-0.1&-16.5	nt	nt	+!	-6.9%
CCc1cc(CNC(=O)c2ccc(OC)c(OC3CCN(C(C)C)CC3)c2)on1	4.8	0.3	-1.4	2.0	0.672	i	nt
O=c1[nH]cc(Cc2ccccc2)c(=O)[nH]1	-5.7	nt	-1.8	nt	nt	i	0.8%
COc1cccc(-c2nc3ccccc3s2)c1	0.0	3.5	nt	0.6	0.755	nt	-5.6%
Cc1ccc(S(=O)(=O)N2CCCN(C(=O)c3ccc(-n4nccc4C)cc3)CC2)cc1	2.5	nt	-9.3	0.9	0.714	i	-3.8%
COc1cc(C(=S)N2CCOCC2)ccc1OC(=O)c1cccc(C)c1	1.4	-3.5	5.0	5.9	0.71	i	9.5%
CC(CCc1ccccc1)NC(=O)C1CCCN(C(=O)c2cc3sccc3n2C)C1 (centres undefined)	2.1	1.5	5.1	3.2	0.688	i	-1.5%
C[C@@H](C(=O)Nc1ccc2ccccc2c1)[C@H]1C[C@]1(C)[C@H](NC(=O)c1cnccn1)c1ccccc1	2.2	0.6	4.9	-0.3	nt	i	-2.2%
CCOC(=O)N1CCN(CC(=O)N2c3ccccc3CCc3ccccc32)CC1	-2.3	10.7	-2.2	0.8	0.655	i	4.6%
Cn1nnnc1SCCNC(=O)C1CCC(=O)N(Cc2ccc(Cl)cc2)C1 (centres undefined)	1.1	-0.2	-0.2	1.6	0.656	i	nt
COc1ccc(-c2cnc(NCc3cc4c(cc3[N+](=O)[O-])OCO4)n2C)cc1	6.2	-2.9	nt	6.2	0.614	nt	nt
O=C(CN1CCOCC1)NCc1ccccc1Cl	0.1	7.3	-1.3	1.2	0.642	i	nt
COc1cccc(C2C(C(=O)Nc3ccccc3)=C(C)N=c3s/c(=C/c4ccc(OCC(=O)O)cc4)c(=O)n32)c1 (centres undefined)	1.3	1.1	nt	nt	nt	nt	0.3%
CCc1nnc(NS(=O)(=O)c2ccc(NC(=O)c3cccc4ccccc34)cc2)s1	-1.1	-2.5	-0.7	1.8	0.67	i	10.6%
COc1ccc(OCC(=O)N2CCCC(Nc3ccc(C)c(C)c3)C2)cc1 (centres undefined)	5.4	nt	1.0	nt	nt	i	nt
C=C(C)CSc1cc(C)c(C#N)c2nc3ccccc3n12	-0.5	56.0*	-3.4	-46.6	nt	i	nt
O=C(Nc1ccc(F)cc1Cl)C1CCN(C(=O)Nc2ccccc2)CC1	1.0	-0.8	0.9	-1.2	0.733	i	nt
O=S(=O)(N/N=C1/CC(c2ccccc2)Oc2ccccc21)c1ccc(Br)cc1 (centres undefined)	-0.7	0.8	nt	nt	nt	nt	8.4%
COc1ccc(NC(=S)Nc2ccc(OCc3ccccc3)cc2)cc1OC	-1.4	6.6	nt	0.6	0.763	nt	4.3%

A portion of the library. The share of hits here may be higher or lower than overall.
